# Compound activity as filed in PubChem BioAssay.
# B2AR ag = agonists of human beta-2 adrenergic receptor inducing internalization. Am2.2-beta2AR cells, FAP receptor internalization, flow cytometry; reference of the scale not given here. response, % (test concentration not listed). actives 0.43% (n = 340,000);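 active = response above a set limit, near 3 SD of response in nonfluorescent compounds, cut at about 42% in these data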;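 also: stock transfer was 100 nL into about 11 µL; a reference agonist was the positive control; negative values mostly stem from fluorescent compounds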
# Target sequence (P07550 whole entry, looked up): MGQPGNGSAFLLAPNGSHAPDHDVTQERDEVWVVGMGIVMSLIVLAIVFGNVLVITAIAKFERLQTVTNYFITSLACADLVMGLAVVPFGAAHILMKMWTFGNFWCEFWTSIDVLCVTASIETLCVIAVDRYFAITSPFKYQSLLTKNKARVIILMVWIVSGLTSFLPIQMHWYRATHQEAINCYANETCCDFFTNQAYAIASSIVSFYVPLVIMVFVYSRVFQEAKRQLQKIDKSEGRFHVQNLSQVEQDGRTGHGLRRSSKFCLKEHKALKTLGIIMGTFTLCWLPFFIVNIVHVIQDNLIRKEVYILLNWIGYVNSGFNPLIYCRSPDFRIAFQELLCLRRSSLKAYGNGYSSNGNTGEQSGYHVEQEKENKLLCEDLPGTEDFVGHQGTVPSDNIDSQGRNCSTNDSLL
# HNF4A DNA FP = change in binding of human HNF4 alpha to DNA. HNF4a-FITC DNA binding, fluorescence polarization, 1 h. activity change, % at 10 µM. actives 0.3% (n = 360,000). P41235; in the data active = activity change above about 30%, passing the limit was not always enough;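 also: controls were the assay level and a saturating level of protein; the project sought stronger binding though the title names inhibitors; some compounds called inactive have numbers as strong as hits; positive values seem to mean higher polarization but the record does not say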
# Target sequence (P41235 whole entry, looked up): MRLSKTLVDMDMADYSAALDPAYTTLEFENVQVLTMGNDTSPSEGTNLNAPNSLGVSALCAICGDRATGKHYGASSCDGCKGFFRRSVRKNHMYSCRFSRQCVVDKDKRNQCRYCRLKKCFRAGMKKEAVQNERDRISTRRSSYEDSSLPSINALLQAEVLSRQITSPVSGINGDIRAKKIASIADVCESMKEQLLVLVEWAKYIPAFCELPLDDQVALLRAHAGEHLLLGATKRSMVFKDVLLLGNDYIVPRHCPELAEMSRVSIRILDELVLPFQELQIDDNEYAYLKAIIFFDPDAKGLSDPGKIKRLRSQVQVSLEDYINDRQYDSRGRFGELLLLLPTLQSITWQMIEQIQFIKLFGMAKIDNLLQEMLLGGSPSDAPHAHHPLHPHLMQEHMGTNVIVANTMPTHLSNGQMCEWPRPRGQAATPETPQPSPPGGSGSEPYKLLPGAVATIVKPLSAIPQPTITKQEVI
# RanGTP-Impb inh = disruptors of Ran-importin-beta complex formation – biochemical, FRET, CFP-Ran, YFP-importin-beta, homogeneous, primary screen; actives 1.1% (n = 300,000); inhibition, % (test concentration not listed); cell-free CFP-Ran/YFP-importin-beta FRET ratio; AID 2216;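 active = most replicates above 15%; inconclusive = exactly half above 15%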;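 also: 0% = DMSO wells and 100% = Ran loaded with GDP instead of GTP; wells of about 40 µL received 100 nL stock; the first replicate is given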
# ALR H2O2 inh = inhibitors of human sulfhydryl oxidase ALR | P55789 | purified ALR, DTT oxidation, H2O2 HRP-luminol luminescence | inhibition, % (concentration not given with the values) | actives 3.8% (n = 290,000);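 active = mean and each replicate at 75% or more; inconclusive = only one of the two met; inactive = neither met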;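 also: stock transfer was 7.5 nL into about 7.5 µL; 0% = neutral wells and 100% = wells with inactivated enzyme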
# Target sequence (P55789 whole entry, looked up): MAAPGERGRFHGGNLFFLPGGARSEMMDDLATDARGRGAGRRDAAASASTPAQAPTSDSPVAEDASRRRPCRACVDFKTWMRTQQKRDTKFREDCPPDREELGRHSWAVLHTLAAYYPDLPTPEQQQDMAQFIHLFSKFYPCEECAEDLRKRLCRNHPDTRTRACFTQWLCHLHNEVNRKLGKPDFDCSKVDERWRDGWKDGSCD
# Vif TR-FRET = inhibitors of Vif binding to APOBEC3G peptide, primary screen, biochemical, TR-FRET, GST-Vif 1-94, biotin-A3G peptide, dose response retest (AID 1117319); TR-FRET GST-Vif / biotin-A3G peptide binding; higher % means a stronger effect; test concentration not given here; strong numbers were not always called active; inhibition, %, or IC50 in µM where a hit was titrated; actives 0.57% (n = 260,000);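 active = above the screen mean plus three standard deviations and confirmed in dose response; inconclusive = results disagree or hit not tested in dose response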;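 also: Vif residues 1-94 fused to GST binding biotinylated APOBEC3G peptide 110-148; 0% = full assay without inhibitor and 100% = GST in place of GST-Vif; retest series ran down from 100 µM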
# LANA-H2B inh = blocks KSHV LANA binding to histone H2A/H2B. Q9QR71. cell-free LANA-H2A/H2B peptide, fluorescence polarization. inhibition, % (no concentration beside the values). actives 0.6% (n = 320,000). AID 2629; in the data active = inhibition mostly above about 10%, no sharp cut-off; inactive = mostly below about 6.7%;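 also: stock transfer was 7.5 nL into about 10 µL; 0% = median of vehicle wells and 100% = median of positive control wells; one replicate is shown; the record names a cut of 25% in any replicate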
# Calb FLC = C. albicans growth modulation with fluconazole; C. albicans CaCi-2 (fluconazole-resistant clinical isolate) + fluconazole, Alamar Blue growth, 48 h; growth inhibition, % (test concentration not listed); actives 0.57% (n = 300,000); AID 1979;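 active = most replicates above 75%; inconclusive = exactly half above 75%; inactive = most below 75%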;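 also: all wells also contain fluconazole at 8 µg/ml as a sub-toxic cotreatment; 0% = median of DMSO wells and 100% = median of geldanamycin control wells; wells of about 8 µL received 7.5 nL stock; the first replicate is given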
# Starred values were filed as active, the others as inactive; ? = inconclusive; nt = no result given.
SMILES,B2AR ag,HNF4A DNA FP,RanGTP-Impb inh,ALR H2O2 inh,Vif TR-FRET,LANA-H2B inh,Calb FLC
CC(C)(C)C1CCC(C(=O)OCC(=O)N2CCN(C(=O)c3ccco3)CC2)CC1 (stereo not given),-3,-2.9,-2.5,-22,nt,3.0,-6
O=C(C1=C(O)C(=O)N(c2ccccc2)C1c1ccc([N+](=O)[O-])cc1)c1cccs1 (stereo not given),3,-1.1,-2.8,89*,27%,-4.2,41
N#Cc1c(-c2ccc3c(c2)OCO3)cc[nH]c1=O,12,2.7,-0.7,nt,-11%,-6.3,-12
Cc1ccc2nc(NC(=O)C3CCCN(S(=O)(=O)c4cccc5nonc45)C3)sc2c1 (stereo not given),nt,nt,-9.2,-4,3%,2.5,3
CC1CCN(Cc2ccc(-c3nnn(CC(=O)Nc4ccccc4Cl)n3)cc2)CC1,-7,0.2,-5.0,5,14%,-5.2,1
CCCN1Cc2cccc(C(=O)N3CCN(c4ccc(F)cc4)CC3)c2C1=O,6,1.9,-0.5,60,24%,-0.6,-17
CSCCC(NS(=O)(=O)c1ccc2ccccc2c1)C(=O)OCC(=O)c1ccc(C(C)C)cc1 (stereo not given),9,5.0,0.5,-9,nt,-394,3
COc1cccc(NC(=O)c2ccc(NCCCN3CCC(C)CC3)c([N+](=O)[O-])c2)c1,5,-4.2,-0.6,4,6%,6.0,-33
COc1cc(/C=C/C(=O)Nc2cc(C(F)(F)F)ccc2Cl)cc(OC)c1OC,6,3.1,5.8,2,2%,0.7,1
Cc1ccc(N2C(=O)NC3(CCCCC3)C2=O)cc1,1,4.1,1.0,-3,-4%,-6.3,0
COCC(C)n1c(C)cc(C(=O)COC(=O)c2nc3nc(C)cc(C)n3n2)c1C (stereo not given),-8,0.6,1.7,7,8%,-3.5,4
O=C(Nc1ccc(C(=O)N2CCCc3ccccc32)cc1)c1cccs1,-15,0.4,-0.3,-12,-4%,2.9,-10
O=C(Cn1nnc2ccccc2c1=O)N1CCCc2ccccc21,-12,-1.3,2.5,6,5%,-9.9,9
CC(/C=C/c1ccco1)=N/NC(=O)Cc1cccs1,8,-1.9,-1.5,5,?,-2.2,1
COc1ccccc1N1CCN(Cc2nc3ccccc3c(=O)n2CC(C)=O)CC1,5,1.0,2.1,25,5%,-6.4,-11
CCc1nnc(NC(=O)C2Cc3ccccc3CN2S(=O)(=O)c2cccs2)s1 (stereo not given),5,-6.7,3.6,-4,-1%,-1.0,-1
O=C(O)CCC1(CCC(=O)O)CCCC(CCC(=O)O)(CCC(=O)O)C1=O,1,0.8,nt,nt,3%,nt,nt
COc1nc(Cl)cn(-c2ccc(Cl)cc2)c1=O,2,1.6,-4.8,16,2%,1.1,-2
NC(=O)c1oc2ccc(Cl)cc2c1N,-5,-1.9,-0.2,48,?,0.0,6
COCCCNCC#CCOc1ccc(OC)cc1,0,-4.0,1.0,16,nt,9.0,-17
CCOC(=O)N/N=C/c1cccnc1,4,-3.1,3.8,-4,3%,-3.4,0
Cc1cccc(/C=N/N(CCO)C2=NS(=O)(=O)c3ccccc32)c1,5,-1.8,-3.7,0,15%,-2.1,-24
CC(=O)c1ccc(OC(C)C(=O)OCC(=O)NCCc2ccccc2)cc1 (stereo not given),-2,-1.1,nt,nt,-15%,-2.8,nt
CC(SC(C)C(=O)NN=Cc1cccc(Cl)c1)C(=O)NN=Cc1cccc(Cl)c1 (stereo not given),1,2.2,nt,nt,-1%,nt,nt
CCC(Oc1ccccc1)C(=O)N(CC)CC(=O)NCc1ccc(F)cc1 (stereo not given),0,-0.3,nt,nt,-1%,nt,nt
O=S1(=O)CCN2C(c3cccc4ccccc34)=CSC2=N1,1,3.3,1.7,-6,?,-0.5,1
Cc1cccc(C(=O)Nc2nnc(-c3cccnc3)o2)c1,6,-1.0,0.1,6,nt,2.1,15
C=CC[C@@H](Cc1ccc(F)cc1)C(=O)OC[C@H]1CCCN1C(=O)[C@@H](CC=C)CC(=O)N[C@@H](CO)Cc1ccccc1,-3,0.1,nt,nt,1%,nt,nt
Cc1ccc(CCNC(=O)CCS(=O)(=O)c2ccc(Br)cc2)cc1,2,1.1,-0.7,-7,28%,2.3,8
O=C(CCNS(=O)(=O)c1ccccc1)OCc1nc2ccsc2c(=O)[nH]1,-7,-0.7,-9.4,-3,0%,6.3,-6
O=C(Cn1c2ccccc2c2nc3n(c(=O)c21)CCS3)Nc1ccccc1,-5,2.9,2.1,nt,nt,2.1,18
CCOC(=O)Cn1c2ccc(OC)cc2c2nc3ccccc3nc21,-10,-25,-14,-3,-3%,-15,-4
Cc1ccc(OCc2cc(C(=O)NCC3COCCO3)no2)cc1C (stereo not given),-1,-0.2,2.2,2,0%,-6.2,4
CN(C(=O)COC(=O)c1ccccc1NC(=O)c1ccco1)C1CCS(=O)(=O)C1 (stereo not given),1,-2.4,7.4,-1,15%,0.6,13
CC(C)c1ccc(NC(=O)Cn2c(=O)oc3ccccc32)cc1,2,-3.6,2.1,2,0%,-4.9,-8
O=C(COc1ccccc1)NCC(=O)Nc1ccncc1,-10,-0.1,1.6,-3,-4%,-3.4,-9
c1coc(Cn2c(SCc3nc4ccccc4[nH]3)nnc2-c2cccs2)c1,-7,0.4,3.3,-1,19%,-0.5,-5
CC1(c2nnc(-c3ccc(F)cc3)o2)CC(c2ccncc2)=NO1 (stereo not given),nt,nt,2.7,39,nt,2.6,2
O=[N+]([O-])c1ccc(Oc2ccc(-c3cnc4ccccc4n3)cc2[N+](=O)[O-])cc1,-1,-1.6,-0.1,0,-8%,-6.5,66
COc1ccccc1C1C(C(=O)c2sc(C)nc2C)=C(O)C(=O)N1CCN1CCOCC1 (stereo not given),1,1.3,-0.4,-17,19%,17*,2
Cc1ccc(S(=O)(=O)Nc2cccc(C(=O)NCCN3CCOCC3)c2)cc1F,2,-1.6,nt,-2,8%,4.2,nt
CC(C)c1cc(CNC(=O)CCc2nnc(CCCCc3ccccc3)o2)on1,-8,3.1,4.4,-2,1%,5.9,6
O=C(N/N=C/c1ccc2c(c1)OCO2)C1COc2ccccc2O1 (stereo not given),-7,3.2,-2.9,-1,-1%,-3.7,-5
O=C1C=C(c2ccccc2)OC2(CCCC2)O1,-3,0.7,-0.8,-15,-2%,-2.5,3
COC(=O)c1cn(NC(=O)Cc2ccc(OC)c(OC)c2)c(=O)c2ccccc12,11,-2.7,nt,nt,22%,3.0,-17
CC(OC(=O)c1ccc2ncsc2c1)C(=O)N(C)C1CCCCC1 (stereo not given),3,0.1,nt,45,-7%,-10,nt
COc1ccc(C(=O)NCC(=O)OCC(=O)c2cc(OC)c(OC)c(OC)c2)cc1OC,-5,1.9,1.0,-4,nt,1.2,-5
COc1ccc(Oc2nc(-c3ccccn3)nc3ccccc23)cc1,-14,-1.2,-0.8,-1,nt,1.4,-6
COc1ccc([C@@H]2CC=C(C(=O)O)[C@H](c3cccc(Cl)c3)N2S(=O)(=O)c2ccc(C)cc2)cc1OC,-6,4.9,nt,-1,nt,-1.8,nt
COC(=O)c1ccccc1NCc1cc(=O)oc2cc(O)c(O)cc12,-23,-14,20*,45,nt,-6.3,-14
Cc1ccc(C)c(S(=O)(=O)Nc2ccccc2C(=O)Nc2ccc(S(=O)(=O)Nc3ncccn3)cc2)c1,-3,0.7,0.7,1,-1%,-9.3,2
COc1cccc([C@H](O)Cn2cc(-c3ccc(CON=C(C)C)cc3)nn2)c1,nt,nt,-3.6,nt,nt,4.2,12
CN(C)C(=O)c1ccc(NC(=O)COC(=O)Cn2cc(C(F)(F)F)ccc2=O)cc1,-2,-2.6,nt,nt,-8%,1.2,nt
COc1ccc(C)cc1NC(=O)C1CCCN(S(=O)(=O)c2cccs2)C1 (stereo not given),-4,3.7,-3.2,-7,nt,0.1,2
CC(C)(C)CC(=O)Nc1nnc(CCc2ccccc2)s1,-3,4.4,-3.2,nt,nt,-2.2,-8
COC(=O)c1cnc(Oc2ccc(NC(=O)NC(=O)c3c(OC)cccc3OC)cc2)cc1C(F)(F)F,21,-1.8,-1.8,-6,-9%,-5.0,-7
COc1ccccc1NC(=O)COc1ccc(/C=N/NC(=O)c2cccnc2)cc1,5,-2.1,-1.5,-2,-8%,9.3,5
COc1cc2oc(=O)c(Br)c(C)c2c(OC)c1OC,3,-0.2,nt,-2,-30%,3.4,nt
Cc1ccc(C)c(OC(C)C(=O)Nc2nccs2)c1 (stereo not given),-6,2.6,2.6,0,5%,-0.9,6
O=C(O)CCn1c(-c2ccccc2)cc2ccccc21,-3,-0.2,3.5,-6,-3%,1.3,11

# (next part)
SMILES,B2AR ag,HNF4A DNA FP,RanGTP-Impb inh,ALR H2O2 inh,Vif TR-FRET,LANA-H2B inh,Calb FLC
O=C(N/C(=C\c1cccs1)C(=O)N1CCOCC1)c1ccco1,1,3.5,-1.0,-8,4%,0.7,1
COc1cc(C)cc2c1OC(c1ccccc1)CC2=O (stereo not given),6,0.4,nt,nt,0%,nt,nt
CCOC(=O)c1ccc(NC(=O)CCN2C(=O)C3CC=CCC3C2=O)cc1 (stereo not given),5,4.5,nt,nt,10%,nt,nt
Cc1cc(N/N=C/c2ccccc2[N+](=O)[O-])nc(-n2nc(C)cc2C)n1,11,-0.3,0.3,1,18%,-1.1,-3
COc1ccc2[nH]c(=O)c(CN(C(=O)NC3CCCCC3)C3CCCCC3)cc2c1,-5,-0.7,0.2,8,-25%,-1.3,17
CC(=O)c1cnc(Nc2nc(C)c3cc(C)c(C)cc3n2)nc1C,-14,1.3,1.5,nt,8%,-0.7,2
O=C1CC(NS(=O)(=O)c2ccc([N+](=O)[O-])cc2)CN1c1ccc2c(c1)OCCO2 (stereo not given),-2,1.5,1.2,-18,7%,8.9,-4
CCOC(=O)C1(Cc2ccc(OC)cc2)CCN(C(=O)CCc2cnccn2)CC1,-6,2.2,1.9,nt,6%,1.9,17
CCOC(=O)CNC(=O)CSc1ncnc2c1cnn2Cc1ccccc1,11,-1.6,1.1,-1,-1%,-0.6,-5
CCN(c1ccccc1)S(=O)(=O)c1ccc(Cl)c(NC(=O)COC(=O)c2ccc(O)cc2)c1,9,-1.0,?,nt,-5%,0.3,2
COC(=O)C[C@H]1c2cc(F)cc(F)c2S(=O)(=O)N1C1CCN(Cc2ccccc2)CC1,-6,1.4,-2.7,-4,nt,-2.9,-18
CC(C)Sc1cc(N2CCCC2)nc(-c2ccc(F)cc2)n1,-3,-0.6,0.3,-10,2%,4.0,0
Cc1cc(C)cc(OCC(=O)NNC(=O)C2CCCO2)c1 (stereo not given),0,-0.3,3.1,-5,7%,0.5,0
COc1ccccc1CNS(=O)(=O)c1ccc(C)cc1,-1,-2.7,0.1,-6,0%,4.7,2
CNC[C@H](NC[C@@H](NCCCc1ccccc1)c1ccccc1)[C@H](C)O,55*,4.0,-1.8,-7,nt,1.6,-13
CCCCn1c(N)c(N(Cc2ccccc2OC)C(=O)c2ccc([N+](=O)[O-])s2)c(=O)[nH]c1=O,7,3.4,-6.2,-66,13%,-1.7,-2
Cc1nonc1C(=O)N/N=C/c1ccc(O)cc1O,-4,-2.8,1.4,nt,-4%,2.3,-3
O=C(COC(=O)Cn1cnc2ccccc2c1=O)NCc1ccccc1,-8,3.0,nt,nt,-5%,nt,nt
COc1ccc(CCNC(=O)c2ccccc2Cl)cc1OC,-13,1.8,?,0,nt,-0.7,16
COC(C[C@@H](O)[C@H](C)[C@H](O)COCc1ccccc1)OC,2,-0.5,?,nt,nt,nt,0
CN(Cc1ccccc1)C(=O)C1CCN(S(=O)(=O)c2cccc3nonc23)CC1,-2,0.4,4.0,-6,4%,1.1,6
Cc1ccoc1C(=O)NCCNc1ccc(Cl)cc1[N+](=O)[O-],-5,-1.6,-0.1,nt,1%,-1.2,3

# Rows were taken by chance; any-hit rate near 6.3%.
